Mtb growth: Mycobacterium tuberculosis H37Rv growth inhibition, cell based, confirmatory dose response (AID 1949) | M. tuberculosis H37Rv growth inhibition | most inactive calls were filed without a number and no value below 0 was filed | one-dose inhibition, % at 10 µg/mL; IC50 in µg/mL for titrated hits | 100,000 tested, 1.6% active;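 active = confirmed in a dose series; inconclusive = about 50% or more but not retested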;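 note: bacteria grown 7 days with compound before Alamar blue readout; 0% = untreated bacteria and 100% = reference antibiotic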
* hit, by the source's call; i = inactive; ? = inconclusive. Some of the compounds tested, so the mix of outcomes need not match the whole.

SMILES | Mtb growth
COc1ccc(/C=C(\NC(=O)c2ccccc2)C(=O)NCC(C)C)cc1OC | i
COC(=O)c1ccc(NC(=O)CNC(=O)C2CCCCC2)c(C)c1 | i
CCOc1ccccc1N(CC(=O)NC1CCCCC1)S(=O)(=O)c1ccc(Cl)cc1 | i
CC1CCCC(C)N1C(=O)c1cc(F)c(F)cc1Cl (centres undefined) | 4.9%
COC(=O)c1sc2ncn(Cc3c(F)cccc3Cl)c(=O)c2c1C | i
COc1ccc(OC)c(NC(=O)CCOc2ccc(C)cc2)c1 | 1.8%
CC(C)(C)C(=O)Nc1ccc(Br)cc1C(=O)O | i
CC(NS(=O)(=O)c1ccc(OCC(=O)Nc2ccccc2Cl)cc1)c1ccccc1 (centres undefined) | i
CS(=O)(=O)N1CCc2cc(C(=O)N3CCOCC3)ccc21 | i
Cc1cc(C)cc(NC(=O)C2C3CCC4C(CCC32)C4(Cl)Cl)c1 (centres undefined) | i
COc1ccc(-c2noc(COc3cccc4ccccc34)n2)cc1OC | i
Cc1cc(C)c2oc(-c3cccc(NC(=S)NC(=O)c4ccc(Cl)cc4Cl)c3)nc2c1 | 4.3%
COc1ccc(NC(=S)NC(=O)c2cccs2)cc1 | i
CO/S(=N/S(=O)(=O)c1ccc(Cl)cc1)c1ccc([N+](=O)[O-])cc1 (centres undefined) | 0.0%
COc1ccc(/C=C(/C#N)S(=O)(=O)c2ccccc2)cc1CSc1nc(C)cc(C(F)F)n1 | i
Cc1cc(Br)cc(C)c1OCC(=O)O | i
O=C(CN1C(=O)C2C3C=CC(C4CC34)C2C1=O)Oc1ccccc1C(=O)Oc1ccccc1 (centres undefined) | 14.0%
CC(NC(=O)c1cccc(C(F)(F)F)c1)c1nc2ccccc2[nH]1 (centres undefined) | i
O=C(Nc1cccc(C(F)(F)F)c1)c1ccc(NCc2ccco2)c([N+](=O)[O-])c1 | i
CSc1ccccc1NC(=O)CCc1ccc(S(=O)(=O)NCCc2ccccc2)cc1 | i
Cc1ccc(CNC(=O)C(=O)Nc2ccc(C)cc2C)cc1 | i
CCC(Oc1ccc(-c2ccc(C)cc2)cc1)C(=O)OC (centres undefined) | i
CC(C)CCN1C(=O)c2ccc(C(=O)O)cc2C1=O | i
Cc1ccc(NC(=O)c2ccc(-c3cccc(Cl)c3Cl)o2)cc1C | 1.9%
COC(=O)c1ccc(C2C3=C(N=C4SCC(=O)N42)c2ccccc2CC3)cc1 (centres undefined) | i
O=C(O)c1ccc(N2C(=O)CC(N3CCN(c4ccccn4)CC3)C2=O)cc1 (centres undefined) | i
COc1ccccc1OCCCC(=O)NC(C)c1ccccc1 (centres undefined) | i
COC(=O)C1=C(C)NC(=O)NC1C1CC=CCC1 (centres undefined) | 4.0%
CC(=O)Nc1ccc2sc(C)nc2c1 | 0.9%
CCN(CC)CCNC(=O)c1ccccc1I | i
Cn1nc([N+](=O)[O-])nc1Sc1ccc(Cl)cc1 | ?
Cc1ccc(NC(=O)c2ccccc2C)cc1Cl | i
CCOC(=O)c1ccc(NC(=S)NC(=O)c2cc(Cl)c(OC)c(Cl)c2)cc1 | i
COC(=O)c1cc(Br)ccc1NC(=O)c1cccs1 | i
Cc1ccc(C(=O)NCCc2ccccc2)cc1Cl | i
COc1ccccc1C(=O)n1nc(-c2cccnc2)nc1N | i
COc1cc2c(cc1OC)C1=C(C#N)CCC(=NC(=O)c3ccc(Cl)cc3)N1CC2 | i
COc1ccc(NC(=O)CCC(=O)O)cc1 | i
C#CCOc1ccccc1C1C2=C(CCCC2=O)N(CC)C2=C1C(=O)CCC2 | i
Cc1ccc(C(NC(=O)CC(C)C)c2ccc3cccnc3c2O)cc1 (centres undefined) | i
Cc1ccc(S(=O)(=O)N2CCOCC2)cc1NC(=O)c1cccc(S(=O)(=O)N2CCCC2)c1 | 2.0%
O=C(CSc1nnc(-c2ccc(Cl)cc2)o1)N1c2ccccc2Sc2ccccc21 | i
CCOC(=O)c1cc(-c2ccccc2)sc1NC(=S)Nc1ccc(C(=O)N2CCOCC2)cc1 | i
Cc1cc(Br)ccc1OCC(=O)Nc1cc(Cl)cc(Cl)c1 | i
Cc1cccc(N2CCN(C(=O)C3CCN(CC4CC=CCC4)CC3)CC2)c1C (centres undefined) | 2.4%
CC(C)CC(=O)Nc1ccc2oc(-c3ccc(Cl)cc3Cl)nc2c1 | 9.8%
Cc1cc(=O)[nH]c2c1c(=O)[nH]n2C1CC(C)N(C)CC1C (centres undefined) | 1.1%
CCCOc1cccc(C(=O)NCc2cccnc2)c1 | 4.6%
O=C(COc1cc(Cl)c(Cl)cc1Cl)N1CCCCCC1 | 4.0%
O=c1c2c3c(sc2nc2c4ccccc4c(Sc4ccc5c(c4)OCCO5)nn12)CCCC3 | i
c1ccc(COc2ccccc2CN2CCOCC2)cc1 | 1.1%
COc1ccc(Cl)cc1N(CC(=O)N1CCC(C(N)=O)CC1)S(=O)(=O)c1ccc(C)cc1 | i
CC(=O)Nc1cccc(NC(=O)c2cc(C)on2)c1 | 1.8%
O=C(CSc1nnnn1-c1ccccc1F)NCc1ccco1 | i
COc1ccc(OCC(=O)Nc2ccc(Oc3ccccc3)cc2)cc1 | i
COc1ccc(C(=O)O)cc1S(=O)(=O)NC(C)C | i
Cc1cn(S(=O)(=O)c2ccc(C)c(C)c2)cn1 | i
COc1cc(CNCCCN2CCOCC2)ccc1OCC(=O)NC1CCCCC1 | 0.6%
CN1C(=O)N(C)C(=O)C(Cc2ccccn2)(Cc2ccccn2)C1=O | i
COc1c(Cl)cc(Cl)cc1CNCC1CCCO1 (centres undefined) | i

The results go on.
SMILES | Mtb growth
COc1cccc(/C=C(/C#N)c2nc3ccccc3[nH]2)c1OCc1ccccc1 | i
O=C(COc1ccccc1)NC(=S)Nc1ccc2c3c(cccc13)CC2 | 0.6%
Cc1cc(OC(=O)C2CC(=O)N(c3ccc(Br)cc3)C2)ccc1N1C(=O)CCC1=O (centres undefined) | i
CCOc1ccccc1NC(=O)CSc1nnc(NC(=O)CCc2ccccc2)s1 | i
O=C(Nc1ncc2c(n1)CC(c1ccco1)CC2=O)c1ccccc1 (centres undefined) | i
CC(=O)OC(C(=O)Nc1nc2ccccc2s1)c1ccccc1 (centres undefined) | 5.4%
CC1CCc2sc3ncnc(NCCN4CCOCC4)c3c2C1 (centres undefined) | 2.8%
CN(c1ccccc1C(=O)Nc1cccc([N+](=O)[O-])c1)S(=O)(=O)c1ccccc1 | i
O=C(CSc1ncn(-c2ccccc2)n1)Nc1cccc2ccccc12 | i
Cc1cccc(NC(=O)c2ccc(CN3CCOCC3)cc2)c1C | i
CCC(CC)C(=O)Nc1ccc(Br)c(C)c1 | i
Cc1ccccc1OCc1nnc(SC(C)C(=O)O)n1Cc1ccccc1 (centres undefined) | 3.0%
COc1ccc(C(=O)O/N=C(\N)Cc2ccc(Cl)c(Cl)c2)cc1OC | 9.32µg/mL*
COC(=O)c1cccc(NC(=O)Nc2ccccc2)c1C | i
CCOC(=O)c1cc(CC)sc1NC(=O)COc1ccccc1C | i
Cc1ccc(NC(=O)CCN2CCCC(C)C2)cc1 (centres undefined) | 2.2%
Cc1ccc(-c2nnc(SCC(=O)Nc3c(C)cc(C)cc3C)o2)cc1 | i
Cc1cccc(NC(=O)CN(c2cccc(C(F)(F)F)c2)S(C)(=O)=O)c1C | i
CS(=O)(=O)N(Cc1ccc(Cl)cc1)c1ccc(C(N)=O)cc1 | i
COc1ccc(N(C(C)C(=O)Nc2cc([N+](=O)[O-])ccc2OC)S(C)(=O)=O)cc1 (centres undefined) | i
COc1ccc(C(=O)Oc2c(C)cc(Br)cc2C)cc1 | 5.0%
N#Cc1cc2c(nc1SCCS(=O)(=O)Cc1ccccc1)CCCC2 | 0.6%
O=S(=O)(Nc1ccc(Cc2ccncc2)cc1)N1CCCC1 | i
CCSCc1nnc(SCC(=O)Nc2cccc(C(=O)OC(C)C)c2)n1C | i
O=C(CSc1n[nH]c(-c2ccncc2)n1)Nc1cccc2ccccc12 | i
CCC(C)NS(=O)(=O)c1ccc(OCC(=O)NC2CCCCCC2)cc1 (centres undefined) | i
S=C(Nc1ccc(Oc2ccccc2)cc1)Nc1cccnc1 | 18.5%
CCOC(=O)c1c(C)n(C)c2ccc(OCC(O)CNCCO)cc12 (centres undefined) | 0.0%
CC(CCc1ccccc1)NC(=O)CCSc1ccccc1 (centres undefined) | i
O=C(Cn1cnc2ccccc21)N/N=C/c1ccccn1 | i
CN(C)S(=O)(=O)c1ccc(C(=O)Oc2ccc(-c3cnc4ccccc4n3)cc2)cc1 | i
Cc1ccc(C(=O)NCc2ccccc2C)cc1 | 6.5%
COc1cc(/C=N/N2CCN(Cc3cccc4ccccc34)CC2)ccc1O | i
CC(C)C(=O)N1CCN(c2ccc(NC(=O)c3cccc([N+](=O)[O-])c3)cc2)CC1 | i
O=C(CCS(=O)(=O)c1ccc2ccccc2c1)Nc1ccccc1 | i
COc1ccc(N2CCN(C(=O)NC34CC5CC(CC(C5)C3)C4)CC2)cc1 | 8.0%
Clc1ccc(OCc2nc3c4cnn(Cc5ccccc5)c4ncn3n2)cc1 | i
CCC(=O)Oc1ccc2c(=O)c(-c3ccc(OC)c(OC)c3)c(C)oc2c1 | 6.9%
Cc1ccc(-c2nnc(SCC(=O)Nc3c(C)cc(Br)cc3C)n2C)cc1 | i
CCOC(=O)C1=C(C)NC2=C(C(=O)CC(c3ccc(OC)cc3)C2)C1c1cccs1 (centres undefined) | 11.2%

Four entries drawn at random from those above, as already listed:
SMILES | Mtb growth
O=C(CCS(=O)(=O)c1ccc2ccccc2c1)Nc1ccccc1 | i
CC(=O)Nc1ccc2sc(C)nc2c1 | 0.9%
O=C(O)c1ccc(N2C(=O)CC(N3CCN(c4ccccn4)CC3)C2=O)cc1 (centres undefined) | i
CC(C)CCN1C(=O)c2ccc(C(=O)O)cc2C1=O | i

(further entries)
SMILES | Mtb growth
Cc1ccccc1C(=O)NC1(C(F)(F)F)C(=O)Nc2c1c(=O)[nH]c(=O)n2CCc1ccccc1 (centres undefined) | i
CCN(CC)C(=O)C1=C(C)NC(=S)NC1c1ccc(F)cc1 (centres undefined) | i
Cc1cc(NC(=O)CCN2C(=O)C3C4C=CC(C4)C3C2=O)cc(C)c1Br (centres undefined) | i
CC1=CC(=C2C(=O)NC(=S)NC2=O)C=C(C(F)(F)F)N1C(C)C | i
O=C(NCc1ccccc1)c1ccc(NC(=O)c2cc(-n3cnnc3)ccc2Cl)cc1 | i
Fc1ccc(C(=S)N2CCN(C(c3ccccc3)c3ccccc3)CC2)cc1 | i
Cc1ccc(NC(=O)C2=C(c3ccccc3)NC(=S)NC2c2ccc3c(c2)OCO3)cc1 (centres undefined) | i
N/C(=N\OC(=O)Oc1ccccc1)c1cccnc1 | i
COc1ccc(-c2noc(CC(c3ccccc3)c3ccccc3)n2)cc1 | i
Cc1cc(Cl)ccc1N(CC(=O)Nc1cccc(C(F)(F)F)c1)S(C)(=O)=O | i
O=C(Nc1cccc(C(=O)Nc2ccc(F)cc2F)c1)c1ccccc1 | 2.7%
OCCNCCCOc1ccc(Cl)cc1Br | i
Cc1ccc(CNc2oc(C)nc2C#N)cc1 | 8.5%
CC1=C(C(=O)OCC2CCCO2)C(c2ccc(C)s2)C2=C(CC(c3ccco3)CC2=O)N1 (centres undefined) | i
CCc1ccc(CNC(=O)C(=O)Nc2ccc(Cl)cc2)cc1 | i
Cn1c(SCC(=O)N2CCN(c3ccccc3)CC2)nnc1-c1ccc(Br)cc1 | 1.3%
CC1Cc2ccccc2N1C(=O)c1ccc2nc(N3C(=O)CCC3=O)sc2c1 (centres undefined) | 0.8%
COc1cc(NC(=O)c2ccc(Cl)cc2Cl)c(C(=O)O)cc1OC | 0.5%
COc1cccc2cc(C(=O)Nc3cccc(F)c3)c(=O)oc12 | i
Cc1ccc(OCC(=O)NC(=S)Nc2ccc(N3CCOCC3)cc2)cc1C | i
COc1ccc(NC(=O)NCc2cnn(C)c2C)cc1 | 2.7%
O=C(Cc1ccccc1)Nc1cc(C(=O)O)ccc1Cl | i
CC1(C(=O)NCc2ccco2)CC1(Cl)Cl (centres undefined) | i
CCOc1ccc(NC(=O)Nc2ccc(NC(=O)Nc3ccc(OCC)cc3)cc2)cc1 | i
COCCCNCCCOc1ccc(Cl)cc1Br | i
Cc1ccc(Cl)cc1N1CCN(S(=O)(=O)c2ccc(Br)s2)CC1 | 10.8%
CC1CCN(S(=O)(=O)c2ccc(NC(=O)COc3ccc([N+](=O)[O-])cc3)cc2)CC1 | i
COC(=O)C1CC(=O)N(c2ccc(Br)cc2)C1 (centres undefined) | 1.2%
O=C(Cc1ccccc1)Nc1ncc(Cc2cc(Cl)ccc2Cl)s1 | i
NS(=O)(=O)c1ccc(NC(=O)CS)cc1 | i
Cc1cc(NC(=O)c2ccc(CSc3ccccc3)o2)no1 | i

Filtered by structure, the compounds so far with bromine
SMILES | Mtb growth
CC(C)(C)C(=O)Nc1ccc(Br)cc1C(=O)O | i
Cc1cc(Br)cc(C)c1OCC(=O)O | i
COC(=O)c1cc(Br)ccc1NC(=O)c1cccs1 | i
Cc1cc(Br)ccc1OCC(=O)Nc1cc(Cl)cc(Cl)c1 | i
Cc1cc(OC(=O)C2CC(=O)N(c3ccc(Br)cc3)C2)ccc1N1C(=O)CCC1=O (centres undefined) | i
CCC(CC)C(=O)Nc1ccc(Br)c(C)c1 | i
COc1ccc(C(=O)Oc2c(C)cc(Br)cc2C)cc1 | 5.0%
Cc1ccc(-c2nnc(SCC(=O)Nc3c(C)cc(Br)cc3C)n2C)cc1 | i
Cc1cc(NC(=O)CCN2C(=O)C3C4C=CC(C4)C3C2=O)cc(C)c1Br (centres undefined) | i
OCCNCCCOc1ccc(Cl)cc1Br | i
Cn1c(SCC(=O)N2CCN(c3ccccc3)CC2)nnc1-c1ccc(Br)cc1 | 1.3%
COCCCNCCCOc1ccc(Cl)cc1Br | i
Cc1ccc(Cl)cc1N1CCN(S(=O)(=O)c2ccc(Br)s2)CC1 | 10.8%
COC(=O)C1CC(=O)N(c2ccc(Br)cc2)C1 (centres undefined) | 1.2%

Screening results as filed in PubChem BioAssay.
